gsp ag = agonists of gsp mutant (McCune-Albright syndrome). gsp mutant cells, cAMP HTRF, 30 min; control for the full effect not named in the record. Potency, µM (series often up to 76.9 µM), for inactives: top-dose activation (cAMP increase), actives largely listed as activators. 340,000 tested, 0.13% active; active = well fitted activation curve with a large enough effect; inconclusive = small, poorly fitted or top-dose-only effect, or another doubt; inactive = no such curve, though single readings can be large or run the other way; cell line not stated here;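 further: phosphodiesterase inhibitor Ro 20-1724 added with compounds to block cAMP breakdown; potency means the concentration at half of the fitted maximal effect; nearly all actives have a fitted effect of over 60% in size; about a fifth of the inactives were tested at one dose only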
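Cells in DMEM/10% FBS with G418 were pretreated with compounds in DMSO plus […] (300 uM stock) for 30 min at 37C. cAMP was measured by HTRF (cAMP-d2 plus anti-cAMP antibody-K) after 30 min at room temperature.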
CtBP-E1A inh = blocks the CtBP interaction with E1A; activity change, % (concentration not given with the values); 340,000 tested, 0.49% active; AlphaScreen GST-E1A/His-CtBP binding, 1536-well; active compounds read low; control for the full effect not named in the record; in the data active means activity change below about -65%; inconclusive means about -30% to -65%; inactive means above about -30%; further: on the % scale 0 is the no-effect control and ±100 the full control effect
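Steps: dispense buffer (Tris pH 8.0, NaCl 300 mM, TCEP 1 mM, BSA, Tween 20); add 5X protein mix (GST-E1A, His-CtBP, 125 nM each); pin 23 nL compound; 2 h at 37 °C, dark; add 5X beads (50 ug/mL); 1 h; read.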
Six1-Eya2 blk = blocks human Six1 binding to Eya2 | AlphaScreen GST-Six1/His-Eya2 binding, biochemical; active compounds read low; control for the full effect not named in the record | activity change, % (concentration not given with the values) | 360,000 tested, 0.56% active; in the data active = activity change below about -65%; inconclusive = about -30% to -65%; inactive = above about -30%; further: on the % scale 0 is the no-effect control and ±100 the full control effect
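AlphaScreen with GST-Six1 and His-Eya2 (5X mix: 250 nM and 500 nM), glutathione donor and nickel acceptor beads; buffer 50 mM Tris pH 8.0, 300 mM NaCl, 1 mM TCEP; 1 h at 37 C in the dark.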
gsp antagonist = gsp mutant antagonism; gsp-mutant cells, cAMP HTRF, 30 min; control for the full effect not named in the record; Potency, µM (series often up to 76.9 µM), without a hit: at the top dose activity change, negative = inhibition, usual class: inhibitors; 340,000 tested, 0.4% active; AID 624288; active = falling curve of any shape with a large fitted effect; inconclusive = falling curve, mostly with a smaller effect; inactive = flat or rising curve; cell line not stated here;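 further: intracellular cAMP measured with PDE inhibitor Ro 20-1724 present during compound exposure; potency means the concentration at half of the fitted maximal effect; on the % scale 0 is the no-effect control and ±100 the full control effect; nearly all actives have a fitted effect of over 65% in size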
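Cells, 2000/well, grown 16–24 h in DMEM 10% FBS with 0.5 mg/ml G418, then compounds plus […] (300 uM addition stock), 30 min at 37C. cAMP read by HTRF (cAMP-d2 and anti-cAMP antibody-K in lysis buffer) after 30 min RT.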
D2 PAM = human D2 receptor positive allosteric modulation. P14416. DiscoveRx D2 beta-arrestin cells, luminescence, 90 min; 100% = 57 uM dopamine signal. potentiation, % (concentration not given with the values). 360,000 tested, 0.23% active. AID 624464; active = potentiation of 50% or more; inconclusive = 30% to 50%; inactive = 30% or less;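 further: compound concentration not given in the record; tested on top of an EC20 dose of dopamine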
Target sequence (P14416 whole entry, looked up): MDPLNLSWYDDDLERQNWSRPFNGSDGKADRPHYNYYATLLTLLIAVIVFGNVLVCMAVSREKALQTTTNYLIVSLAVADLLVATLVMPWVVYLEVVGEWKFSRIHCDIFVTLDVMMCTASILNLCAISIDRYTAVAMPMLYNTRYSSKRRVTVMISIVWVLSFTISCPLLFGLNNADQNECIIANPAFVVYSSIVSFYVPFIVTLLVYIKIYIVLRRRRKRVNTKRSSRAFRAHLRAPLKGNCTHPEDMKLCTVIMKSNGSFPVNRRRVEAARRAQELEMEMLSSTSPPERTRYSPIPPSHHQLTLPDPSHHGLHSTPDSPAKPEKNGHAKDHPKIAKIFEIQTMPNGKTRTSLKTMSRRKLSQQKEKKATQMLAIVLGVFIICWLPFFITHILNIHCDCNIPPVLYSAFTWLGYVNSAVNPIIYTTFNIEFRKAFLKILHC
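PathHunter D2 cells, attached overnight at 37 deg C, received compound in DMSO plus dopamine at EC20 (50 nM final) for 90 min at 37 deg C. Beta-arrestin recruitment was read as luminescence after 1 h with detection reagent at ambient temperature.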
D2 ag = human D2 receptor agonism in beta-arrestin assay | P14416 | DiscoveRx PathHunter D2 beta-arrestin, luminescence, 90 min; 100% = 57 uM dopamine signal | activation, % (test concentration not listed) | 360,000 tested, 0.084% active | AID 624465; in the data active = activation above about 40%; inconclusive = about 15% to 40%; inactive = below about 15%; further: compound concentration not given in the record; the text of the record calls up to 30% inactive
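Agonist mode: compounds alone added to overnight-plated D2 PathHunter cells for 90 min at 37 C, with 57 uM final dopamine (EC100) defining full response. Beta-arrestin recruitment detected by chemiluminescent reagent, read after 1 h at ambient temperature.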
* marks the source's active call; other numbers are inactive results; ? = inconclusive; / = not tested or not shown; [ ] = dose if it differs, or a comment.

gsp ag	CtBP-E1A inh	Six1-Eya2 blk	gsp antagonist	D2 PAM	D2 ag	smiles
6%	3	6	3%	-12	-3.4	CC1(C)CC(=O)C=C(NC2CCCCC2)C1
3%[15.4 µM]	-2	6	1%	2	-1.1	COCCCN(C(=O)CCOc1ccccc1C)c1c(N)n(Cc2ccccc2)c(=O)[nH]c1=O
?	2	3	0%	-1	-2.1	N#Cc1c(Nc2ccccc2)sc(C(=O)C2CC2)c1N
-11%[15.4 µM]	3	7	-2%	-15	-10	COc1ccc(CCNC(=O)COC(=O)c2cc(=O)[nH]c3ccccc23)cc1
-14%	2	-2	0%	-8	-1.7	CC[C@@]12C(=O)N(c3ccc(C)cc3)C(=O)N1[C@H](c1ccc(OC)cc1)[C@@H]1C(=O)N(C(C)(C)C)C(=O)[C@@H]12
-22%	-22	?	2%	-14	-17	CCN(CC)CCNC(=S)NC(=O)c1cn(-c2ccccc2)nc1-c1ccc(OC)cc1
-68%[15.4 µM]	0	10	-2%	2	0.7	Cc1ccc(S(=O)(=O)N2CCN(C(=O)C(C)Cn3nc(C)c(C)c3C)CC2)cc1C (stereo not drawn)
-28%	8	2	4%	-5	-1.9	CC(NC(=O)Nc1ccccc1)C(c1cccs1)N1CCOCC1 (stereo not drawn)
9%	-4	0	-3%	-6	0.9	Cc1nc(NC(=O)c2ccc(Br)s2)sc1C(=O)N(C)C
-1%	-7	-8	3%	-2	5.5	CCOC(=O)CNC(=O)CSc1ncccc1-c1nc2ccccc2[nH]1
1%[15.4 µM]	13	0	-1%	-1	5.5	O=C(/C=C/c1cccs1)N1CCN(c2ccc(O)cc2)CC1
-37%[inhibitor]	-4	2	-10%	-9	-0.2	CN(C)/C=C(/C(=O)c1ccc(Cl)cc1Cl)S(=O)(=O)c1ccc(Cl)cc1
?	68	122	-13%	-4	-1.4	Cc1cc(N2CCC(C)CC2)n2ncc(-c3ccccc3)c2n1
-1%	/	-25	-11%	-9	-1.6	Fc1ccccc1Cn1cc(C(=S)N2CCOCC2)c2ccccc21
?	-4	-2	-4%	7	3.5	CN1CCN(C(=O)c2cc3nc(-c4ccc(Cl)cc4)cc(C(F)(F)F)n3n2)CC1
/	-13	4	5%	/	-1.1	COc1ccc(-c2ccc(-c3cc(=O)oc4cc(OC)c(OC)c(OC)c34)cc2)cc1
?	-8	1	1%	-18	1.5	COC(=O)Nc1ccc2c(c1)ncn2C1CCCCC1
17%	3	7	11%	-2	-2.9	O=C(O)CSCC(=O)Nc1ccc(C(=O)O)cc1
8%	2	12	-14%[15.4 µM]	-1	-3.8	Fc1ccc(CSc2nnc(Cc3sc(-c4ccccc4)nc3-c3ccccc3)o2)cc1
/	-2	-9	/	8	7.7	COc1cccc(CNC(=O)c2cc3c(c(-c4cccc(-c5cccc(C#N)c5)c4)n2)[C@H](CCO)N(S(=O)C(C)(C)C)C3)c1 (stereo partly drawn)
/	-5	-8	-22%	-4	-1.6	CC(C)C(=O)N1CCC2(CC1)Oc1ccc(Cl)cc1C(=O)C21CC(c2ccccc2)=NO1 (stereo not drawn)
-7%[15.4 µM]	14	2	4%	-3	-0.5	O=C(NCCc1ccccc1)C(=O)NCC1OCCN1S(=O)(=O)c1ccccc1 (stereo not drawn)
-43%[15.4 µM]	-16	-23	-5%	-8	-0.8	O=C(COc1ccccc1Cl)Nc1ccc(S(=O)(=O)Nc2ccccn2)cc1
-50%[inhibitor]	-8	9	2%	0	-3.8	CCC1CCCCN1C(=O)CCCc1ccccc1 (stereo not drawn)
/	18	12	-20%	-3	-1.4	C=CCn1c2ccccc2c(=O)c2cc(C#Cc3ccccn3)ccc21
19%	7	1	0%	-10	-0.4	CCOC(=O)C1=C(C)N=c2s/c(=C\c3ccc(OC(C)=O)cc3)c(=O)n2C1/C=C/c1ccccc1 (stereo not drawn)
3%	-3	2	11%	-7	-1.2	O=C(NNC(=O)c1cccs1)c1ccc(S(=O)(=O)N2CCCCC2)cc1
-21%	11	7	14%	-5	-3.4	O=C(CCc1ccccc1)NCc1ccc(F)cc1
-3%	/	-6	-2%	-3	-0.2	Cc1ccc(C(=O)Nc2ccc(S(=O)(=O)Nc3ncccn3)cc2)cc1[N+](=O)[O-]
17%[15.4 µM]	20	5	2%	-4	1.5	Cc1cccc(C)c1NC(=S)Nc1ccc(F)cc1

Given with tabs: entries from further up.
structure	gsp ag	CtBP-E1A inh	Six1-Eya2 blk	gsp antagonist	D2 PAM	D2 ag
COc1cccc(CNC(=O)c2cc3c(c(-c4cccc(-c5cccc(C#N)c5)c4)n2)[C@H](CCO)N(S(=O)C(C)(C)C)C3)c1 (stereo partly drawn)	/	-2	-9	/	8	7.7
CC(C)C(=O)N1CCC2(CC1)Oc1ccc(Cl)cc1C(=O)C21CC(c2ccccc2)=NO1 (stereo not drawn)	/	-5	-8	-22%	-4	-1.6
O=C(NCCc1ccccc1)C(=O)NCC1OCCN1S(=O)(=O)c1ccccc1 (stereo not drawn)	-7%[15.4 µM]	14	2	4%	-3	-0.5
O=C(COc1ccccc1Cl)Nc1ccc(S(=O)(=O)Nc2ccccn2)cc1	-43%[15.4 µM]	-16	-23	-5%	-8	-0.8
CCC1CCCCN1C(=O)CCCc1ccccc1 (stereo not drawn)	-50%[inhibitor]	-8	9	2%	0	-3.8

Additional results follow:
gsp ag	CtBP-E1A inh	Six1-Eya2 blk	gsp antagonist	D2 PAM	D2 ag	smiles
15%[15.4 µM]	-9	7	5%	-6	-3.3	CCN(CC)C(=S)Nc1cc(C(=O)OC)ccc1C(=O)OC
1%	-12	-8	1%	13	-4.3	Cc1cc(NC(=O)c2ccc(COc3ccc(Cl)c(C)c3)o2)no1
7%	-3	2	11%	-10	-2.0	O=Cc1c(-[n+]2ccccc2)nc([O-])n1-c1ccccc1
-4%[15.4 µM]	14	10	6%	13	-0.3	Cc1ccccc1C(=O)c1c[nH]c(C(=O)N=CN(C)C)c1
?	3	2	18%	-2	6.4	COc1ccc(CCCNC(=O)C2CCC(=O)N(CCCN3CCCC3=O)C2)cc1 (stereo not drawn)
-10%	-2	13	10%	-21	-8.0	CCN(CC)C1CCN(C(=O)c2ccc(OC3CCN(CCc4ccccc4)CC3)cc2)C1 (stereo not drawn)
1%[15.4 µM]	-6	-5	25%	-8	-0.8	CCc1ccc2oc(C(=O)N3CCN(c4ccccc4OC)CC3)cc(=O)c2c1
-22%[15.4 µM]	4	0	12%	-9	-8.1	CCCCCCCCCCOC(=O)C[N+](C)(C)CC1CCCCC1O (stereo not drawn)
10%	-11	1	0%	-8	-4.0	CC(=O)NNC(=O)c1[nH]c2ccc(Br)cc2c1-c1ccccc1
-19%	5	5	15%	0	-4.0	O=C1CCC(=O)N1CCOP1(=O)COc2ccccc2OC1
-1%	/	4	-8%	-4	-11	O=C(O)CCc1cccnc1
4%[15.4 µM]	-1	-22	1%	-7	-1.8	CCOc1ccc(C(=O)N[C@H](C(=O)Nc2ccc(S(=O)(=O)Nc3nccs3)cc2)C(C)C)cc1
?	-10	6	4%	-11	0.0	O=C(NO)c1cc(OCC(F)(F)F)ccc1OCC(F)(F)F
-2%	-3	-1	-24%	-3	-3.9	Cc1ccc(OCCSCc2nc3ccccc3[nH]2)cc1
?	1	2	15%	-8	-2.7	CCOCCCn1c(=S)[nH]c2cc(C(=O)NCCc3ccc(OC)c(OC)c3)ccc2c1=O
/	0	-11	3%	-5	-1.4	COc1ccc(N(Cc2ccccc2)C(=O)OC(C)(C)C)c(C(=O)N(C)OC)c1
?	3	-5	/	-4	-13	COc1ccc(C(=O)N2C=Cc3ccccc3C2C(N)=O)cc1 (stereo not drawn)
-3%	1	-2	3%	6	-0.2	C/C(=N\N1CCN(c2ccc(Cl)cc2)CC1)c1ccco1
12%	6	-2	3%	84*	6.9	C=C(C)COc1ccc(-c2[nH]ncc2-c2ccccc2)c(O)c1
14%[15.4 µM]	7	-13	20%	-8	-3.1	N#C/C(=C\c1c(N2CCCCC2)nc2ccccn2c1=O)C(=O)NC1CCS(=O)(=O)C1 (stereo not drawn)
/	-8	?	/	-6	-12	Clc1cccc(Cc2c(-c3ccco3)nc3ccc(Br)cn23)c1
-6%[15.4 µM]	3	9	1%	-10	-3.0	Cc1ccc(C)c(OCCC(=O)NNC(=O)c2ccccc2F)c1
/	-4	-10	/	-9	3.2	CCc1nc2c(OCc3ccc(OC(F)F)cc3)cccn2c1N(C)C(=O)c1ccco1
?	4	-1	/	-3	-3.9	CCCCSCc1nc2nc(Cl)c(Cl)nc2[nH]1
-1%[15.4 µM]	-13	-1	4%	-1	1.9	CC(=O)Oc1ccc(/C=C2\C=C(c3ccc(C)cc3)OC2=O)cc1
-6%[15.4 µM]	0	-5	14%	-9	-3.5	CCC(CO)NCc1cc(OC)c(OCC(=O)NCCc2ccccc2)cc1Br (stereo not drawn)
-71%[inhibitor]	8	1	-27%	-6	1.2	O=C(O)CCC(=O)N1CCc2cc(S(=O)(=O)N(CCc3ccccc3)Cc3ccccc3)ccc21
-40%[inhibitor]	6	-1	-30%	13	0.7	O=C1C2ON(c3ccccc3)C(c3cccnc3)C2C(=O)N1c1ccc(Cl)c(Cl)c1 (stereo not drawn)
3%[15.4 µM]	-5	-1	-3%	-14	2.6	Cc1ccnc(N2C(=O)CSC2c2ccc(Cl)cc2)c1 (stereo not drawn)
2%	4	-2	10%	-7	-1.7	O=C(N/N=C/c1ccoc1)c1ccccc1Br
-39%[inhibitor]	6	-2	1%	5	-0.1	CCC(C)(C)NC(=O)C(c1ccc(C)cc1)N(Cc1ccco1)C(=O)Cn1nnc2ccccc21 (stereo not drawn)
13%	0	-1	-3%	-8	-3.8	C/C=C/C(=O)OCC(=O)Nc1cccc(S(=O)(=O)NC2=NCCCCC2)c1
21%	-3	-5	-7%	-9	-0.5	Cn1c(=O)c2[nH]c(C=Cc3ccc4c(c3)OCO4)nc2n(C)c1=O
?	12	1	2%	-11	-3.1	CC(=O)OCc1c(COC(C)=O)[n+](=O)c2ccccc2n1[O-]
?	1	-2	4%	-34	-2.9	CCn1c(NCc2ccccc2Cl)nc2ccccc21
11%	-1	-14	-16%	-16	-3.6	CCOC(=O)c1c(C)[nH]c(C)c1C(=O)CSc1nnc(-c2ccco2)n1Cc1ccccc1
5%	-7	1	6%	-14	-0.6	COc1ccc(/C=N/NC(=S)Nc2ccccc2)cc1COc1cccc(C)c1C
-34%[inhibitor]	-5	3	1%	-3	-2.6	O=C(NC(=S)Nc1ccc(CN2CCOCC2)cc1)c1cc2ccccc2o1
6%	1	-6	-2%	-2	0.9	O=C(Nc1cnc2ccccc2c1)C1COc2ccccc2O1 (stereo not drawn)
2%	7	2	-7%	5	-1.9	COCCN1C(=O)c2ccc(C(=O)Nc3nccs3)cc2C1=O
18%	-14	10	-9%	1	-1.2	COC(=O)c1c(NC(=O)CN2C(=O)C(=O)N(CC(C)C)C2=O)sc(C)c1C
?	1	0	3%	-5	0.9	CC(=O)N1c2ccc(S(=O)(=O)N3CCC(C(=O)Nc4ncccc4C)CC3)cc2CC1C (stereo not drawn)
